Rce1 inhib – yeast Ras-converting enzyme inhibition; yeast membranes, quenched prenylated peptide cleavage fluorescence; calls only; actives 0.27% (n = 290,000); Q03530;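 active = fall in fluorescence gain of 50% or more versus controls, with final raw signal at or below 3038400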;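 note: plate controls were neutral control wells for no effect and wells lacking membranes for full effect; tested at 10 µM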
PABP polyA inh – blocks human PABP binding to poly(A) RNA | P11940 | fluorescence polarization | inhibition, % at 35 µM | actives 1% (n = 290,000) | AID 2014;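 active = 50% or more with normal probe brightness, or confirmed in later tests; about a fifth of its hits are not listed in these tables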;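 note: calls also rest on retests at 20 µM and on dose response follow-up; controls were probe without protein and protein plus probe with vehicle; some compounds called inactive have numbers as strong as hits; many hits fall short of the cut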
Target sequence (P11940 whole entry, looked up): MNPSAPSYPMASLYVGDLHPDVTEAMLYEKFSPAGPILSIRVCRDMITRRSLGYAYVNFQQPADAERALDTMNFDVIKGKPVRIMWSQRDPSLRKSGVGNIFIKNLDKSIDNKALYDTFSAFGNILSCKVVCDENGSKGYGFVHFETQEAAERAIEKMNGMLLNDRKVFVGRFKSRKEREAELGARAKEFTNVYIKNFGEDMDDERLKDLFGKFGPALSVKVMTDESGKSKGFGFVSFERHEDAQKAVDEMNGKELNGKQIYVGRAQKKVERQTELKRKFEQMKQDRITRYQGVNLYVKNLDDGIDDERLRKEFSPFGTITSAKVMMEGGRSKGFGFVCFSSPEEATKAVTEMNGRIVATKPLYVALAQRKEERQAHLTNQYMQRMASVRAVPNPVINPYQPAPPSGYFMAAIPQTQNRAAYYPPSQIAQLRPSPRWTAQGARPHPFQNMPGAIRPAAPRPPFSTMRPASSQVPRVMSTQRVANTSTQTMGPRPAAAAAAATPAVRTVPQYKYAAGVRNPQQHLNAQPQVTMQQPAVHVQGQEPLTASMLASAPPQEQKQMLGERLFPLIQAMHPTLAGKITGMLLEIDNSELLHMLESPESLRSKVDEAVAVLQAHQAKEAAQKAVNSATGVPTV
UUG fidelity – alters start codon recognition fidelity in yeast; actives 0.13% (n = 350,000); activity score, % at 18.7 µM; S. cerevisiae UUG-firefly luciferase reporter, luminescence/redox ratio;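 active = replicate mean at a twofold rise or more, about +100% in these data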;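 note: firefly luciferase made from a UUG start codon reports start codon fidelity; reporter light over untreated wells divided by growth signal over untreated wells; some hits fall short of that in this replicate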
CSC inhib – blocks cancer stem cells | actives 1.1% (n = 300,000) | inhibition, % at 7.5 µM | cancer stem cell-like cells viability, luminescence;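 active = mean at 75% or more and at least half the replicates too; tested in HMLE shEcad cells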;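 note: 0% = median of negative and 100% = median of positive control wells; the first replicate is given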
HIV Env fusion – inhibitors of HIV Env-mediated cell fusion. HeLa-JRFL Env/CEM21 cell fusion, luciferase. inhibition, % at 12.3 µM. actives 1.1% (n = 360,000). AID 651610;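 active = mean replicate inhibition score of at least 50 and every replicate individually at or above 50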;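 note: 0% = plate neutral controls and 100% = maraviroc near 300 nM; one replicate is shown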
MT1-MMP act inh – blocks activation of human MT1-MMP; HT1080 RFP-PRO-GFP cells, GFP/RFP ratio fluorescence, overnight; percent of plate control window, DMSO zero; GFP/RFP ratio change, % at 20 µM; actives 0.061% (n = 360,000); AID 651647;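 active = GFP/RFP ratio change of at least 30% with cell ATP level not reduced by more than half and red fluorescence within 50% of control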; note: strong numbers were not always called active
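Test system: HT1080 RFP-PRO-GFP cells; Benchmarks: DMSO and RFP-L50D-GFP cell wells; Timing: cells overnight before dosing, compound overnight, 37 °C, 5% CO2; Compound: one 20 µM compound dose with 1% DMSO; Read-out: GFP/RFP fluorescence ratio.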
eIF4H FP inh – inhibitors of RNA binding by human eIF4H; eIF4H fluorescence polarization binding assay; inhibition, % at 35 µM; actives 0.94% (n = 290,000);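 active = 50% or more with normal probe brightness, or confirmed in later tests; about a fifth of its hits are not listed in these tables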;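 note: calls also rest on retests at 20 µM and on dose response follow-up; 0% = protein and probe with vehicle and 100% = probe without protein; strong numbers were not always called active; many hits fall short of the cut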
MT1-MMP act inh RFP – also measured in MT1-MMP act inh; calls as there; RFP signal change, %; measured here: RFP expression control read;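 0 = vehicle wells; hits needed this value within 50% of zero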
The depositor's hits bear a star; i = inactive; nt = no result given; & = joins results of further samples. The list is partial; count on the stated rates, not on these rows.

Sequence of screens: Rce1 inhib	PABP polyA inh	UUG fidelity	CSC inhib	HIV Env fusion	MT1-MMP act inh	MT1-MMP act inh RFP	eIF4H FP inh
O=C(Nc1nnc(C2CC2)s1)C1COc2ccccc2O1 (stereo unspecified)
    i	4	nt	10	-1	-2	1	-5
Cc1ccc(C)c(NC(=O)CSc2nc3c(c(=O)n2C)SC(C)C3)c1 (stereo unspecified)
    i	8	-35	-12	12	6	-4	0
CCOC(=O)CSc1nnc2n1C(C)(C)Cc1ccccc1-2
    nt	-1	-18	-7	-30	-4	-4	-7
O=C(O)Cc1ccc(NC(=O)c2ccc(NC(=O)c3ccco3)cc2)cc1
    i	10	-3	1	-28	2	5	2
Nc1c(C(=O)CSc2n[nH]c(-c3ccccc3)n2)c(=O)[nH]c(=O)n1C1CC1
    nt	nt	-6	nt	-1	11	5	nt
CCOC(=O)C1CCCN(S(=O)(=O)Cc2ccccc2)C1 (stereo unspecified)
    i	10	-34	-6	-37	2	4	4
CCOc1ccc(-n2c(N)c(C(=O)NCc3ccco3)sc2=S)cc1
    i	-8	-21	-3	-14	3	3	-5
CCOC(=S)SCc1cn2ccccc2n1
    i	2	nt	-15	-14	6	2	6
Fc1ccc(-c2nc3ccc(Cl)cn3c2Cc2cccc(F)c2)cc1
    nt	nt	-13	nt	-38	-6	-9	nt
Cc1cc(NC(=O)c2ccc3sc([C@@H]4O[C@H](CO)[C@H](O)[C@H](O)[C@H]4O)nc3c2)n(C)n1
    nt	nt	-14	nt	-43	6	4	nt
COc1ccc(N2CC(C(=O)NC3CCCCC3)CC2=O)cc1 (stereo unspecified)
    i	2	nt	-3	20	-2	0	7
Cc1ccc2[nH]c3c(=S)nc[nH]c3c2c1
    i	-10	nt	12	-22	6	4	-7
CC(C)c1ccc(NC(=S)NNC(=O)c2cccnc2)cc1
    i	9	nt	-2	4	4	4	2
CCOC(=O)C(C)Sc1cnccn1 (stereo unspecified)
    i	-7	nt	-7	1	0	6	0
CNc1cc([N+](=O)[O-])ccc1N/C=C/C(=O)c1cccs1
    i	-10	-12	nt	nt	1	6	3
O=S(=O)(Cc1ccc(Cl)cc1)NCc1ccc2c(c1)OCO2
    i	-12	-6	-7	nt	-1	-4	-14
COC(=O)c1sc(N2C(=O)C(O)=C(C(=O)c3ccc(C)o3)C2c2ccc(OC)c(OC)c2)nc1C (stereo unspecified)
    i	-15	-10	-9	48	-3	0	-9
CCOc1ccc(-c2[nH]ncc2-c2ccccc2)c(O)c1
    i	-2	-17	-21	2	-4	2	-12
CCCc1nnc(NC(=O)CCC(=O)NCc2ccc(Cl)cc2Cl)s1
    i	nt	-21	-2	6	-1	-4	nt
Cc1cc(C)c(OCCOCCN(C)C)c(Br)c1
    i	6	nt	46	28	1	4	13
COc1cc(NC(=O)CCc2ccccc2)nc(OC)n1
    i	5	-11	0	-15	-3	-2	1
O=C(CCn1c(=S)[nH]c2ccccc2c1=O)NCCCN1CCCC1=O
    i	9	-13	7	-29	2	6	-12
CCC1(CC)NC(=O)N(CC(=O)Nc2ccc(-n3cnnn3)cc2)C1=O
    nt	nt	1	10	nt	9	5	nt
CC(=O)c1ccc(NC2OC(CO)C(O)C(O)C2O)cc1 (stereo unspecified)
    i	-3	-7	-4	-38	1	7	-7
COc1cccc(CNc2nn[nH]n2)c1OC
    i	26	-9	-10	nt	-6	-2	-1
COc1ccc(C(c2c(C)n(C)n(-c3ccccc3)c2=O)c2c(C)n(C)n(-c3ccccc3)c2=O)c(OC)c1OC
    i	-4	-4	-3	-2	3	-1	-1
CCCCNC(=O)CCCCCNS(=O)(=O)c1ccc(OC)cc1
    i	6	-30	3	-31	-1	1	-4
O=C(c1ccccc1O)N1N=C(C(F)(F)F)CC1(O)c1ccc([N+](=O)[O-])cc1 (stereo unspecified)
    i	-4	-16	4	59*	2	-1	-2
Cc1ccc(C2CC(=O)NC(SCc3ccccc3)=C2C#N)o1 (stereo unspecified)
    i	-3	0	nt	nt	-11	-6	-3
COc1ccc(S(=O)(=O)N2CCC(C(=O)N3CCC(C(N)=O)CC3)CC2)cc1Cl
    nt	-4	nt	-11	3	-1	0	2

Single records, from the list above. Screens in order: Rce1 inhib	PABP polyA inh	UUG fidelity	CSC inhib	HIV Env fusion	MT1-MMP act inh	MT1-MMP act inh RFP	eIF4H FP inh
`COc1ccc(C(c2c(C)n(C)n(-c3ccccc3)c2=O)c2c(C)n(C)n(-c3ccccc3)c2=O)c(OC)c1OC` is entered as i	-4	-4	-3	-2	3	-1	-1
`O=S(=O)(Cc1ccc(Cl)cc1)NCc1ccc2c(c1)OCO2` is entered as i	-12	-6	-7	nt	-1	-4	-14
`CC(C)c1ccc(NC(=S)NNC(=O)c2cccnc2)cc1` is entered as i	9	nt	-2	4	4	4	2
`CCCCNC(=O)CCCCCNS(=O)(=O)c1ccc(OC)cc1` is entered as i	6	-30	3	-31	-1	1	-4
`CCOC(=O)C(C)Sc1cnccn1` (stereo unspecified) is entered as i	-7	nt	-7	1	0	6	0

Returning to the listing, repeating the seven entries before the break.
Sequence of screens: Rce1 inhib	PABP polyA inh	UUG fidelity	CSC inhib	HIV Env fusion	MT1-MMP act inh	MT1-MMP act inh RFP	eIF4H FP inh
CC(=O)c1ccc(NC2OC(CO)C(O)C(O)C2O)cc1 (stereo unspecified)
    i	-3	-7	-4	-38	1	7	-7
COc1cccc(CNc2nn[nH]n2)c1OC
    i	26	-9	-10	nt	-6	-2	-1
COc1ccc(C(c2c(C)n(C)n(-c3ccccc3)c2=O)c2c(C)n(C)n(-c3ccccc3)c2=O)c(OC)c1OC
    i	-4	-4	-3	-2	3	-1	-1
CCCCNC(=O)CCCCCNS(=O)(=O)c1ccc(OC)cc1
    i	6	-30	3	-31	-1	1	-4
O=C(c1ccccc1O)N1N=C(C(F)(F)F)CC1(O)c1ccc([N+](=O)[O-])cc1 (stereo unspecified)
    i	-4	-16	4	59*	2	-1	-2
Cc1ccc(C2CC(=O)NC(SCc3ccccc3)=C2C#N)o1 (stereo unspecified)
    i	-3	0	nt	nt	-11	-6	-3
COc1ccc(S(=O)(=O)N2CCC(C(=O)N3CCC(C(N)=O)CC3)CC2)cc1Cl
    nt	-4	nt	-11	3	-1	0	2
CN1CCN(c2nc3c(c(=O)[nH]c(=O)n3C)n2Cc2cccc3ccccc23)CC1
    i	-7	-1	-5	-130	-7	0	-4
CC(=O)Nc1ccc(N2Cc3ccccc3C2)cc1
    i	2	-13	-10	23	-6	0	1
CCCCCC(=O)N1CCN(CCN=CC2=C(O)CC(c3cccs3)CC2=O)CC1 (stereo unspecified)
    i	7	2	4	nt	7&-1	0&0	6
O=C(O)c1cc(Cl)nc2ccccc12
    i	4	0	-3	2	-1	0	3
CNCc1cc(Br)c(OCC(=O)Nc2ccccc2OC)c(OC)c1
    i	6	nt	1	14	-2	-5	7

Compound activity (PubChem BioAssay)
